Yeast UUG start: modulators of start codon recognition fidelity in yeast | hit rate 0.13% among 350,000 | S. cerevisiae UUG-firefly luciferase reporter, luminescence/redox ratio | AID 602363 | activity score, % at 18.7 µM;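 active = replicate mean at a twofold rise or more, about +100% in these data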;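 also: firefly luciferase made from a UUG start codon reports start codon fidelity; reporter light over untreated wells divided by growth signal over untreated wells; some hits fall short of that in this replicate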
Env fusion inh: inhibitors of HIV Env-mediated cell fusion. HeLa-JRFL Env/CEM21 cell fusion, luciferase. hit rate 1.1% among 360,000. inhibition, % at 12.3 µM;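 active = mean replicate inhibition score of at least 50 and every replicate individually at or above 50; inconclusive = only one of the two criteria met; inactive = mean below 50 and not all replicates reaching 50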;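 also: 0% = plate neutral controls and 100% = maraviroc near 300 nM; one replicate is shown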
CSC inhib: blocks cancer stem cells; cancer stem cell-like cells viability, luminescence; inhibition, % at 7.5 µM; hit rate 1.1% among 300,000; AID 2717;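 active = mean at 75% or more and at least half the replicates too; inconclusive = mean and replicates disagree; tested in HMLE shEcad cells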;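 also: 0% = median of negative and 100% = median of positive control wells; the first replicate is given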
MT1-MMP act inh: MT1-MMP (human) activation inhibition; GFP/RFP ratio change, % at 20 µM; AID 651647; HT1080 RFP-PRO-GFP cells, GFP/RFP ratio fluorescence, overnight; percent of plate control window, DMSO zero; hit rate 0.061% among 360,000;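 active = GFP/RFP ratio change of at least 30% with cell ATP level not reduced by more than half and red fluorescence within 50% of control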; also: strong numbers were not always called active
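Assay system: HT1080 RFP-PRO-GFP cells. Benchmarks: DMSO vehicle wells and RFP-L50D-GFP reporter cell wells. Times: overnight cell settling, then overnight compound exposure, 37 °C, 5% CO2. Compound: 20 µM single dose, 1% DMSO. Read-out basis: GFP/RFP fluorescence ratio.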
Rce1 inh: inhibitors of yeast Ras-converting enzyme; hit rate 0.27% among 290,000; yeast membranes, quenched prenylated peptide cleavage fluorescence; calls only; Q03530;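 active = fall in fluorescence gain of 50% or more versus controls, with final raw signal at or below 3038400; inconclusive = same 50% fall but final raw signal above 3038400; inactive = fall in fluorescence gain under 50%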;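 also: plate controls were neutral control wells for no effect and wells lacking membranes for full effect; tested at 10 µM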
eIF4H FP inh: inhibitors of RNA binding by human eIF4H. inhibition, % at 35 µM. Q15056. AID 2012. hit rate 0.94% among 290,000. eIF4H fluorescence polarization binding assay;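 active = 50% or more with normal probe brightness, or confirmed in later tests; inconclusive = above 50% with abnormal brightness, or retests that disagree; inactive = below 50% or failed in later tests; about a fifth of its hits are not listed in these tables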;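 also: calls also rest on retests at 20 µM and on dose response follow-up; 0% = protein and probe with vehicle and 100% = probe without protein; strong numbers were not always called active; many hits fall short of the cut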
PABP polyA inh: PABP-poly(A) binding inhibition; inhibition, % at 35 µM; P11940; PABP-poly(A) RNA binding, fluorescence polarization; hit rate 1% among 290,000;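 active = 50% or more with normal probe brightness, or confirmed in later tests; inconclusive = above 50% with abnormal brightness, or retests that disagree; inactive = below 50% or failed in later tests; about a fifth of its hits are not listed in these tables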;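 also: calls also rest on retests at 20 µM and on dose response follow-up; controls were probe without protein and protein plus probe with vehicle; some compounds called inactive have numbers as strong as hits; many hits fall short of the cut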
Target sequence (P11940 whole entry, looked up): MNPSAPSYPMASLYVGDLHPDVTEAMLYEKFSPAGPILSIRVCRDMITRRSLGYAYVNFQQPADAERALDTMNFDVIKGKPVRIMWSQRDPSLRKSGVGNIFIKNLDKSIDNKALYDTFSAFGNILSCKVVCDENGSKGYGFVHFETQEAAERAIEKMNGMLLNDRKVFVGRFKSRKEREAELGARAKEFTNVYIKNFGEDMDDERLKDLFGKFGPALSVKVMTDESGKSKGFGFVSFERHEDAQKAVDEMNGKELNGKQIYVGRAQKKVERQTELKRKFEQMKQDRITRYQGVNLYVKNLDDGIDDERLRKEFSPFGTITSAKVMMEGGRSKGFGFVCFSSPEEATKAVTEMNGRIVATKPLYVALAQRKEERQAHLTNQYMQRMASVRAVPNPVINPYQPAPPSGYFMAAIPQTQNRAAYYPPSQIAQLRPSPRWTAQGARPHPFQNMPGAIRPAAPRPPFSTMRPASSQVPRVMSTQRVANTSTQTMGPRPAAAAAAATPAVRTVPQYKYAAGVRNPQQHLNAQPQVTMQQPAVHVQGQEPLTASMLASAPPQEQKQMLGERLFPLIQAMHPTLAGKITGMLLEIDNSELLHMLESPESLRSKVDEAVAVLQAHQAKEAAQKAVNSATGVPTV
eIF4H FP inh retest: also measured in eIF4H FP inh; calls as there; inhibition, %; compound at 20 µM; confirmation average;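 mean of two retest wells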
PABP polyA inh retest: second read-out of PABP polyA inh, no call of its own (marks repeat the call); inhibition, %; compound at 20 µM; confirmation repeats;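 mean of two retest wells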
MT1-MMP act inh RFP: second read-out of MT1-MMP act inh, no call of its own (marks repeat the call); RFP signal change, %; measured here: RFP expression control read;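 0 = vehicle wells; hits needed this value within 50% of zero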
* marks the source's active call; other numbers are inactive results; i = inactive; ? = inconclusive; / = no result given; + = active, no number. Hits appear at their usual frequency, and some 3% of all compounds hit somewhere here.

SMILES	Yeast UUG start	Env fusion inh	CSC inhib	MT1-MMP act inh	MT1-MMP act inh RFP	Rce1 inh	eIF4H FP inh	PABP polyA inh	others
O=C(COc1ccccc1Cl)Nc1ccc(C(=O)N2CCCCC2)cc1	-1	3	0	5	-7	i	1	10
COc1ccc(/C=N/NC(=O)CNC(=O)c2ccc(S(=O)(=O)N3CCOCC3)cc2)cc1OC	9	/	-5	0	0	i	-2	8
NC1=NC(=Nc2ccc(S(N)(=O)=O)cc2)c2ccccc21	-20	2	7	-1	2	i	1	4
O=C(COC(=O)CNC(=O)c1ccccc1)Nc1ccc(S(=O)(=O)N2CCCC2)cc1	/	8	-20	4	5	i	-1	-6
O=C(CCC(=O)N(CC(=O)NC1CCCCC1)c1ccccc1F)Nc1nccs1	-8	10	-8	-2	0	i	3	-5
Cc1ccc(-n2c(-c3ccccc3)cc(/C=N/NC(=O)CC#N)c2-c2ccccc2)cc1	/	-13	19	/	/	i	-7	33
O=C(CNC(=S)N(Cc1ccccc1F)C1CCCCC1)NCC1CCCO1 (configuration not stated)	/	?	4	0	-2	i	-11	-2
C[C@H](CO)N1C[C@H](C)[C@H](CN(C)Cc2ccccc2)Oc2ccc(NC(=O)Nc3ccc(F)cc3)cc2C1=O	7	-24	17	14	-8	/	/	/
COc1ccc(C(C(=O)NC2CCCC2)N(CCO)C(=O)Cn2nnc(-c3ccc(C)o3)n2)cc1OC (configuration not stated)	-8	-1	-54	-3	-3	i	1	1
CCCCCC(=O)Nc1nc(C)c(-c2csc(Nc3cc(Cl)ccc3OC)n2)s1	-21	-3	3	1	0	i	-5	7
O=C(COC(=O)C1CCCCC1)Nc1ccccc1OC(F)F	/	7	-4	-3	-4	i	-7	5
CCN=C1SC(CC(=O)Nc2sc(C)c(C)c2C(=O)OC)C(=O)N1CC (configuration not stated)	-15	/	-15	2	0	i	-3	-3
COc1ccc(-c2nn(-c3ccccc3)cc2C(=O)N2CCN(C(=O)c3ccco3)CC2)cc1	-15	-4	-13	0	-1	/	/	/
Cc1ccc2nsnc2c1S(=O)(=O)NCc1cccnc1	-8	-5	-9	3	4	i	-7	0
COc1ccccc1NC(=O)c1ccc(S(=O)(=O)NCc2ccco2)cc1	-4	-10	/	0	0	i	-4	4
O=C(Nc1cc(SCCO)cc([N+](=O)[O-])c1)c1ccco1	-17	7	-18	6	1	i	8	6
CC(C)c1ccc(C(=O)NCCCN(C)C)cc1	-4	10	-9	1	2	i	3	7
O=C(NNS(=O)(=O)c1ccccc1)C1CC(c2cccnc2)=NO1 (configuration not stated)	/	-1	-5	2	3	i	-6	-2
O=C(NC1CCCCCCC1)c1cc(COc2ccc3ncccc3c2)on1	/	22	/	-7	-31	i	-5	-2
COc1ccc(CCNc2oc(COc3ccccc3F)nc2C#N)cc1OC	-18	/	6	3	-8	/	-1	-3
Cc1ccc(C(C(=O)Nc2ccc3c(c2)OCO3)N(C)C(=O)Cc2c[nH]c3ccccc23)cc1 (configuration not stated)	/	-138	2	-10	-8	i	-2	-2
CN1C(=O)NC(c2ccc([N+](=O)[O-])cc2)C2=C1CC(C)(C)CC2=O (configuration not stated)	1	-10	-3	-1	-1	i	-4	0
CCCc1cc(=O)[nH]c(SCc2nc3ccc([N+](=O)[O-])cc3[nH]2)n1	/	-13	30	-2	-4	i	2	-3
COc1ccc(CNC(=O)CCCn2nc(C)c([N+](=O)[O-])c2C)cc1	/	8	2	2	4	i	-14	3
O=C(c1cccs1)N1CCN(S(=O)(=O)c2ccc(F)cc2)CC1	/	-8	-4	/	/	/	4	3

More records
SMILES	Yeast UUG start	Env fusion inh	CSC inhib	MT1-MMP act inh	MT1-MMP act inh RFP	Rce1 inh	eIF4H FP inh	PABP polyA inh	others
CCOc1ccc(C(c2c(O)nc(SC)n(C)c2=O)c2c(O)nc(SC)n(C)c2=O)cc1	-19	-148	-7	-5	-1	i	-8	15
CCC(C)C(NC(=O)c1ccccc1NC(=O)c1ccco1)C(=O)NNC(=O)c1ccncc1 (configuration not stated)	/	11	-22	-1	1	i	-13	-2
Cc1nc(-c2ccc(NC(=O)C3CCCCC3)cc2)cs1	60	/	4	6	3	i	8	0
O=C1[C@H](Cc2ccccc2)NCCCC[C@H](c2ccc(Cl)cc2)N1Cc1ccccc1	14	86*	/	-19	-13	/	/	/
CCC(C(=O)O)N1C(=O)c2ccccc2C1=O (configuration not stated)	/	-13	1	12	-4	i	-8	-3
Cc1ccc(OCC(=O)NNC(=O)c2ccc(F)c(S(=O)(=O)N3CCOCC3)c2)cc1C	4	-7	/	5	1	/	/	/
C=CCn1c(CNS(=O)(=O)c2ccc(Br)cc2)n[nH]c1=S	-1	5	-20	3	-5	i	1	2
CCOC(=O)c1cnc(COc2ccc(OC)cc2)[nH]c1=O	/	9	-7	0	1	i	-7	4
COc1cccc(CNC(=O)Cn2nc([N+](=O)[O-])c(Br)c2C)c1	-23	2	-19	2	2	/	-6	-2
C=CCN(c1ccccc1)S(=O)(=O)c1cccc(C(=O)NNC(=O)c2ccncc2)c1	-19	5	-2	1	0	i	/	/
CCOC(=O)Nc1cc2c(cc1[N+](=O)[O-])-c1ccccc1C2=O	-13	3	/	6	1	/	/	/
NC1=NC2(CCCCC2)N(c2ccc(F)cc2)C(N)=N1	-28	-4	-1	-2	3	i	8	-6
Cc1ccc(OCCC(=O)OCC(=O)NC2CCS(=O)(=O)C2)cc1 (configuration not stated)	-5	8	1	1	0	i	/	/
CCCn1c(SCC(=O)Nc2sc(C)c(C)c2C#N)nnc1C(C)C	-19	-77	-9	-1	1	i	6	13
Cc1cc(F)c(F)c(C(=O)N2CCN(C)CC2)c1Cl	-12	-9	-15	-4	3	i	-1	8
C=CCOc1ccc(C2NC(=O)c3ccccc3O2)cc1 (configuration not stated)	-10	-15	-13	2	4	i	-2	2
COc1ccc(-c2csc3ncnc(Nc4ccc(O)cc4)c23)cc1	/	3	-16	-5	-6	i	7	5
C#CCOCCOCCOCCNc1nc(N2CCN(C(=O)Cn3cc(CCCN=C(N)N)nn3)CC2)nc(N2CCN(C(=O)[C@H](C)n3cc(CCCN=C(N)N)nn3)CC2)n1	-21	6	-21	-1	0	/	35	2
Cc1ccc(/C=N/n2c(-c3ccncc3)n[nH]c2=S)o1	/	16	/	-4	0	i	3	6
COc1ccc(C(=O)C2CCCN(Cc3cn(C)nc3-c3ccccc3)C2)cc1F (configuration not stated)	/	6	6	-6	2	i	-9	-8
Cc1cccc(CCNC(=O)C2CCCN(S(=O)(=O)c3cnc[nH]3)C2)c1 (configuration not stated)	-7	9	5	-8	5	i	2	1
CCOC(=O)CNC(=O)Cn1cnc2c(oc3ccccc32)c1=O	-12	-7	-15	-1	4	i	/	/
CC(OC(=O)[C@@H](NC(=O)c1ccco1)C(C)C)C(=O)Nc1ncc(Cl)cc1Cl (some centres not stated)	-5	/	-2	-2	-2	/	/	/
CCC1(c2ccc(F)cc2)NC(=O)N(CC(=O)NC2CCCC(C)C2C)C1=O (configuration not stated)	-11	-11	-6	3	2	/	/	/
CN(Cc1cnn(C)c1)C(=O)c1cc2ccccc2oc1=O	-11	/	-26	2	6	i	-6	3

Structural class, those above with a furan ring, fused or not
SMILES	Yeast UUG start	Env fusion inh	CSC inhib	MT1-MMP act inh	MT1-MMP act inh RFP	Rce1 inh	eIF4H FP inh	PABP polyA inh	others
COc1ccc(C(C(=O)NC2CCCC2)N(CCO)C(=O)Cn2nnc(-c3ccc(C)o3)n2)cc1OC (configuration not stated)	-8	-1	-54	-3	-3	i	1	1
COc1ccc(-c2nn(-c3ccccc3)cc2C(=O)N2CCN(C(=O)c3ccco3)CC2)cc1	-15	-4	-13	0	-1	/	/	/
COc1ccccc1NC(=O)c1ccc(S(=O)(=O)NCc2ccco2)cc1	-4	-10	/	0	0	i	-4	4
O=C(Nc1cc(SCCO)cc([N+](=O)[O-])c1)c1ccco1	-17	7	-18	6	1	i	8	6
CCC(C)C(NC(=O)c1ccccc1NC(=O)c1ccco1)C(=O)NNC(=O)c1ccncc1 (configuration not stated)	/	11	-22	-1	1	i	-13	-2
Cc1ccc(/C=N/n2c(-c3ccncc3)n[nH]c2=S)o1	/	16	/	-4	0	i	3	6
CCOC(=O)CNC(=O)Cn1cnc2c(oc3ccccc32)c1=O	-12	-7	-15	-1	4	i	/	/
CC(OC(=O)[C@@H](NC(=O)c1ccco1)C(C)C)C(=O)Nc1ncc(Cl)cc1Cl (some centres not stated)	-5	/	-2	-2	-2	/	/	/

Further entries
SMILES	Yeast UUG start	Env fusion inh	CSC inhib	MT1-MMP act inh	MT1-MMP act inh RFP	Rce1 inh	eIF4H FP inh	PABP polyA inh	others
CN1CCN(C(=S)NCCc2ccccc2)CC1	-14	/	-16	5	5	i	-10	10
CCOC(=O)[C@H]1O[C@@H]1C(=O)N[C@@H](CC(C)C)C(=O)NCCC(C)C	-19	/	1	4	3	i	2	7
CC(C)CN(C(=O)CCC(=O)OCc1ccc(Cl)cc1Cl)c1c(N)n(CC(C)C)c(=O)[nH]c1=O	-7	-22	-6	-11	-10	i	/	/
CCOc1ccc(N=C/C=C/c2ccccc2)c(O)c1	-29	-61	-3	7	11	i	?	119*	PABP polyA inh retest=126*
Cc1ccc(C=C2C(Cl)=C(Cl)C(Cl)=C2Cl)cc1	/	/	100*	/	/	i	102*	84*
COc1ccc(C2C(C(=O)NCCN(C)C)c3ccccc3C(=O)N2C)cc1OC (configuration not stated)	-13	-38	0	-2	4	i	3	-13
COc1ccc(CNC(=O)C(C)N(C)Cc2cccc(F)c2)cc1 (configuration not stated)	-17	14	-6	-6	-2	i	-5	-2
CC(=O)C1=C(O)C(=O)N(c2ccc(S(=O)(=O)Nc3nccs3)cc2)C1c1ccc([N+](=O)[O-])cc1 (configuration not stated)	/	-13	/	5	8	i	2	-4
CCCCCCCCCCOC(=O)Cn1c(COc2ccc(C)cc2)[n+](C)c2ccccc21	-42	?	124*	-1	-32	+	10	24
COc1ccc(N2CC(C(=O)N3CCc4ccccc43)CC2=O)cc1 (configuration not stated)	4	-4	-18	1	4	i	-6	5
N#Cc1ccc(OC(=O)C2CCN(C3=NS(=O)(=O)c4ccccc43)CC2)cc1	-12	6	/	-1	1	/	/	/
O=C(Nc1cc(Cl)cc(Cl)c1)c1ccno1	-6	-2	/	0	-1	i	-5	4
O=C(CCCN1C(=O)/C(=C\c2ccco2)SC1=S)Nc1cccc2ccccc12	/	0	45	15	25	i	92	4	eIF4H FP inh retest=-11;PABP polyA inh retest=-4
O=C(C1CCN(c2ncnc3c2sc2cccc(F)c23)CC1)N1CCCC1	/	-2	/	/	/	i	-14	7
Cc1ccn(CC(=O)N2CCCC(N3CCN(Cc4ccc5c(c4)OCO5)CC3)C2)n1 (configuration not stated)	1	2	2	0	4	i	-15	-12
COc1ccc(NC(=S)NNC(=O)CCn2cc([N+](=O)[O-])cn2)cc1	/	2	3	3	6	i	-3	2
O=C(/C=C/c1ccc2c(c1)OCO2)NCc1ccco1	/	/	5	3	2	i	30	14

Gathered by group: those above containing bromine.
SMILES	Yeast UUG start	Env fusion inh	CSC inhib	MT1-MMP act inh	MT1-MMP act inh RFP	Rce1 inh	eIF4H FP inh	PABP polyA inh	others
C=CCn1c(CNS(=O)(=O)c2ccc(Br)cc2)n[nH]c1=S	-1	5	-20	3	-5	i	1	2
COc1cccc(CNC(=O)Cn2nc([N+](=O)[O-])c(Br)c2C)c1	-23	2	-19	2	2	/	-6	-2
